High-throughput results as filed in PubChem BioAssay.
miR-21 reporter: raises the signal of a miR-21 reporter. HeLa miR-21 FLuc reporter, luciferase, 48 h. Potency, µM (titrated, usually from 38.3 µM), for inactives: at the highest dose reporter change, positive = more light. 340,000 tested, under 10 active. AID 2288; active = well fitted rising curve with a large enough effect; inconclusive = small, poorly fitted or top-dose-only effect; inactive = no such curve, though single readings can be large or run the other way;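 note: % of control where 0% means no effect; miR-21 action dims this reporter so a rising signal means less miR-21 action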
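Using DMEM plus 10% FBS, HeLa miR-21-FLuc cells are incubated with test compounds (final up to about 40uM) for 48 hours; firefly luciferase signal is then imaged following reagent-mediated lysis.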
GLA inh pH 4.5: inhibitors of human alpha-galactosidase A at pH 4.5; P06280; purified enzyme, 4-MU-alpha-Gal fluorescence, pH 4.5; activity change, negative = inhibition, % at 105 µM; 230,000 tested, under 10 active; inconclusive = small, poorly fitted or top-dose-only inhibition, or a rising curve; inactive = flat fitted curve, though single readings scatter; no compound was filed as active;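 note: 0% = full activity with enzyme and -100% = basal without enzyme; dose as in the result columns while the protocol names 77 µM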
Rango dissoc inh: inhibitors of RanGTP-induced Rango-importin beta complex dissociation. O95149+P62826. Biochemical FRET Rango-importin beta, RanGTP-induced dissociation. Potency, µM (titrated, usually from 46.1 µM), without a hit: at the highest dose activity change, negative = inhibition. actives 0.071% (n = 340,000); active means falling FRET ratio curve, often poorly fitted, with flat reads before Ran was added; inconclusive means other falling curves, or compound fluorescence or quenching; inactive means flat or rising ratio curve;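 note: potency is the fitted concentration of half-maximal effect; % of control where 0% means no effect; nearly all actives have a fitted effect of over 45% in size; -100% = wells without RanGTP and RCC1; the record marks most hits as doubtful in a second field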
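Quantitative HTS using a FRET biosensor: 0.1 uM Rango, 0.25 uM importin beta, 0.6 uM Ran, 2 mM GTP, 0.2 uM RCC1 final, PBS with DTT, Tween-20 and BSA. Post-read taken 45 min after Ran addition.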
Rango-impB inh: inhibitors of Rango-importin beta complex formation | Q14974 | Rango CFP/YFP FRET sensor + importin beta, 45 min | Potency, µM (series often up to 92.2 µM), for inactives: at the top dose inhibition of complex formation | actives 0.031% (n = 340,000) | AID 540263; active = rising FRET ratio curve, often small or poorly fitted; inconclusive = mostly compound fluorescence or quenching in the first reads; inactive = flat curves in all reads;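 note: potency is the fitted concentration of half-maximal effect; 0% = DMSO wells and 100% = buffer wells lacking importin beta; nearly all actives have a fitted effect of over 15% in size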
Target sequence (Q14974 whole entry, looked up): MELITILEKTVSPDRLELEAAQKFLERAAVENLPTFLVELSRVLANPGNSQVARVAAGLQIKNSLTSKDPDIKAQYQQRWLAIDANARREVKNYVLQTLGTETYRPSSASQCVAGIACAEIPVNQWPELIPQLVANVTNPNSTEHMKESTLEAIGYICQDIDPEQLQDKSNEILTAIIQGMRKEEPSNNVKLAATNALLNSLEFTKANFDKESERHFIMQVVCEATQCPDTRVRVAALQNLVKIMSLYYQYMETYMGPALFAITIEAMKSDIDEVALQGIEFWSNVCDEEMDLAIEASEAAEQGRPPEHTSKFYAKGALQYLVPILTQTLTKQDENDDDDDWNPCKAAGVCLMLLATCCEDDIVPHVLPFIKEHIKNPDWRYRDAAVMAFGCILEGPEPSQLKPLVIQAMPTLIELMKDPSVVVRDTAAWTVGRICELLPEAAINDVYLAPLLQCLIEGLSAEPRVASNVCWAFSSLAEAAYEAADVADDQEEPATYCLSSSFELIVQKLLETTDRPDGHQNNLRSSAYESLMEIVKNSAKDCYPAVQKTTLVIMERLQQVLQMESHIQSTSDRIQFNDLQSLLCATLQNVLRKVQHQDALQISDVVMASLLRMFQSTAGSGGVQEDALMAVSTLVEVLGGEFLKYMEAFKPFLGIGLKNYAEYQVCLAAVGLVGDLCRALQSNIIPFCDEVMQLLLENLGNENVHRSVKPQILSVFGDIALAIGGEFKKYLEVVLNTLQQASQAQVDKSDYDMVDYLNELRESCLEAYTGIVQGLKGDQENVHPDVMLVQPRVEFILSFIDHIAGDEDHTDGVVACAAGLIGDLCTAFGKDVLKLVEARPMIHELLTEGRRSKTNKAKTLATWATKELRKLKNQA
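FRET biosensor (snurportin 1 IBB flanked by EYFP and cerulean), 50 nM, with compound 5 min, then 0.125 microM importin beta in PBS, 1 mM DTT, 0.02% Tween-20, 0.1% BSA. CFP/YFP ratio read after 45 min at room temperature; pre-read flags interference.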
Active calls of the source: *; ? = inconclusive; . = no result given; & = joins results of further samples. An excerpt (hit frequency here may not be typical).

The first six compounds, to show the layout:
SMILES	miR-21 reporter	GLA inh pH 4.5	Rango dissoc inh	Rango-impB inh
O=C(Nc1ccccc1)c1cccc(S(=O)(=O)NC2CCCC2)c1	11%	.	13%	-3.6%
O=C(Oc1ccccc1N1C(=O)C2CCCCC2C1=O)c1ccccc1F (configuration not stated)	-12%	21	-18%	-3.4%
O=C(CSCc1nc2scc(-c3cccs3)c2c(=O)[nH]1)Nc1ccccn1	-9%	.	-2%	0.8%
C=CCN1C(=O)C(C)(C)Nc2ccccc21	-1%	7	9%	3.7%
Cc1cc(F)ccc1NC(=O)c1ccc(NS(=O)(=O)c2cc(C(C)(C)C)ccc2C)cc1	-1%	-5	-3%	1.7%
COC(=O)c1ccc(Oc2c(C)oc3c(CN4CCN(C)CC4)c(O)ccc3c2=O)cc1	-1%	1	28%	2.9%

The list itself, previewed entries included:
SMILES	miR-21 reporter	GLA inh pH 4.5	Rango dissoc inh	Rango-impB inh
O=C(Nc1ccccc1)c1cccc(S(=O)(=O)NC2CCCC2)c1	11%	.	13%	-3.6%
O=C(Oc1ccccc1N1C(=O)C2CCCCC2C1=O)c1ccccc1F (configuration not stated)	-12%	21	-18%	-3.4%
O=C(CSCc1nc2scc(-c3cccs3)c2c(=O)[nH]1)Nc1ccccn1	-9%	.	-2%	0.8%
C=CCN1C(=O)C(C)(C)Nc2ccccc21	-1%	7	9%	3.7%
Cc1cc(F)ccc1NC(=O)c1ccc(NS(=O)(=O)c2cc(C(C)(C)C)ccc2C)cc1	-1%	-5	-3%	1.7%
COC(=O)c1ccc(Oc2c(C)oc3c(CN4CCN(C)CC4)c(O)ccc3c2=O)cc1	-1%	1	28%	2.9%
COc1ccc(NC(=O)c2cc(-c3ccccc3)nc3c2c(C)nn3-c2ccccc2)c(OC)c1	-2%	0	-5%	1.8%
COc1ccc(-c2c(-c3ccc(OC)cc3O)nc(C)nc2C(F)(F)F)cc1	-1%	.	-7%	1.8%
COc1ccc(S(=O)(=O)NCC2CCCN(C(=O)CCSC)C2)cc1 (configuration not stated)	1%	.	9%	-4.4%
Cc1ccc(OCCCC(=O)Nc2cc(Cl)ccc2-n2cncn2)cc1	.	.	-8%	0.6%
COc1cc(C(=S)N2CCCCC2)ccc1OCC(=O)N1CCCC1	-5%	-11	0%	0.1%
COc1ccccc1C(=O)N1c2ccccc2Sc2ccccc21	30%	?	3%	-1.3%
O=S(=O)(c1ccccc1)N(c1ccccc1)S(=O)(=O)c1ccccc1	.	.	-3%	-0.3%
CCOC(=O)N1CCC2(CC1)C(C#N)=C(N)OC1=C2C(=O)CCC1	-6%	6	-12%	0.7%
COc1ccc2[nH]c(C(=O)N3CCC(CO)(Cc4cccc(C(F)(F)F)c4)CC3)c(C)c2c1	26%	.	-7%	1.6%
CCO[C@H]1OC(C(N)=O)=C[C@@H](C2CCCCC2)[C@@H]1CCCO	4%	4	-6%	4.2%
CCOC(=O)c1ccc(Oc2nc(SC)nc(N(C)C)n2)cc1	-8%	-5	-4%	-0.7%
CCN(CC(=O)Nc1c(F)cccc1F)C(=O)CSCC(=O)Nc1cccc(C)c1	.	.	-5%	-2.1%
CC(=O)Nc1ccc(S(=O)(=O)N2c3ccccc3C(C)=CC2(C)C)cc1	?	-12	-9%	-1.5%
Cc1ccc(C)c(NC(=O)CN(C)C(=O)COc2cccc3c2OC(C)(C)C3)c1	.	.	-8%	-1.6%
CCCCN(C(=O)c1cccc(S(=O)(=O)N2CCOCC2)c1)c1c(N)n(CCC)c(=O)[nH]c1=O	-2%	0	23%	-1.4%
O=C(O)c1cc(S(=O)(=O)N2CCCCCC2)ccc1Cl	-2%	7	-8%	?
CC(=O)N/C(=C/c1ccc2c(c1)OCO2)C(=O)N1CCOCC1	0%	.	0%	0.0%
O=S(=O)(NNC(=S)NCC1CCCO1)c1cc(Cl)ccc1Cl (configuration not stated)	0%	.	1%	?
C/C(=N\NC(=O)c1csc2ccccc12)c1ccc(O)cc1	7%	3	0%	-4.8%
COc1ccc2oc(=O)c(/C(N)=N/NC(=O)c3ccncc3)cc2c1	-4%	.	-16%	-0.4%
CCCCn1c(SCC(=O)NCc2cccs2)nc2c1c(=O)n(C)c(=O)n2C	4%	2	7%	1.7%
CCOC(=O)C1=C(N)N(c2ccc(C)cc2)C2=C(C(=O)CCC2)C1c1cccs1 (configuration not stated)	2%	?	15%	-0.5%
Cc1ccc(C2=CC(c3cccs3)n3nnnc3N2)cc1 (configuration not stated)	-11%	2	?	?
Cc1cccc(C(=O)N2CCc3cc(-c4nc(NC(=O)Cn5nnc6ccccc6c5=O)sc4C)ccc32)c1	1%	-5	.	.
O=c1c2[nH]c3ccccc3c2nc2n1CCCS2	-41%	2	0%	4.5%
COc1cc(C(C(=O)NC2CCCCC2)N(Cc2cccs2)C(=O)Cc2c[nH]c3ccccc23)cc(OC)c1OC (configuration not stated)	13%	3	0%	-2.4%
CCCCn1c(C)nc2cc(S(=O)(=O)N3CCOCC3)ccc21	.	.	12%	-12%
COC(=O)Nc1nc2c(s1)CCCC2	-38%	-10	-9%	5.7%
O=C(/C=C/c1ccc(S(=O)(=O)N2CCOCC2)cc1)N1CCN(c2ccc(F)cc2)CC1	6%	-7	-9%	-4.4%
Oc1cncc(Cc2ccccc2)c1	-3%	.	16%	0.4%
O=C(Nc1cccc(S(=O)(=O)NC2=NCCCCC2)c1)C1COc2ccccc2O1 (configuration not stated)	-1%	0	6%	0.1%
CCN(CC)CCCNC(=O)Cn1nc([N+](=O)[O-])c(Cl)c1C	-3%	-5	-4%	-1.1%
CN(CC(=O)Nc1ccccc1Cl)C(=O)CSc1nnc(-c2ccco2)o1	1%	-5	19%	-5.8%
O=C(CSc1nccc(=O)[nH]1)Nc1cccc2ccccc12	-2%	.	3%	3.7%
CSCCC(NS(=O)(=O)c1ccc2c(c1)oc(=O)n2C)C(=O)NCc1ccc(C)cc1 (configuration not stated)	2%	9	-24%	3.8%
CCCCn1c(SCC(=O)NNC(=O)c2ccco2)nnc1-c1ccco1	-11%	-8	3%	-1.3%
COc1ccc(OC)c(NC(=O)Cn2cccc2)c1	-5%	2	-12%	0.0%
Cc1ccc(C(C)NC(=O)c2cccs2)cc1 (configuration not stated)	.	.	-3%	-0.2%
CCOC(=O)CN=C(NS(=O)(=O)c1ccc(Cl)cc1)c1ccccc1	-1%	6	22%	-4.3%
CCCOc1cccc(C2C(C(=O)c3cccs3)=C(O)C(=O)N2CCN2CCOCC2)c1 (configuration not stated)	-1%	.	15%	2.1%
CC(=O)NC1=NC(=O)/C(=C/c2cc(C)n(-c3ccc(NC(C)=O)cc3)c2C)S1	-35%	-4	?	?
CNC(=S)Nc1cccc([N+](=O)[O-])c1	-1%	-1	3%	-0.1%
O=C(Nc1ccccc1)Nc1ccc(C(=O)N2CCCC2)cc1	-1%	4	18%	?
CCc1nnc(NC(=O)C(C)C)s1	0%	2	9%	-4.1%
COc1ccc(C(O)(CCc2ccccc2)CCN2CCCCC2)cc1 (configuration not stated)	0%	-16	0%	0.7%
CSCCC(NC(=O)c1ccc(Cl)cc1Cl)C(=O)NNC(=O)c1csc(N2CCOCC2)n1 (configuration not stated)	-11%	.	-15%	1.4%
COC(OC)c1ccnc(SCc2ccccc2Cl)n1	-14%	-7	0%	0.5%
O=C(O)CSc1nnc(NC(=O)c2ccc3c(c2)OCO3)s1	24%	-2	14%	1.5%
COc1ccccc1N1C(=O)c2cccnc2C1=O	-3%	.	-15%	-1.6%
Cc1ccc(NC(=O)c2ccc(F)cc2F)cc1NS(C)(=O)=O	-17%	0	-12%	-1.7%
Cc1ccc(C(=O)NNC(=O)c2cc(C)nc3ccccc23)cc1	.	.	-8%	?
COCCN(C(=S)Nc1cccc(C)c1)C(C)c1cccs1 (configuration not stated)	-3%	-18	-5%	2.8%
CCCCn1c(N)c(N(CCOC)C(=O)CCc2ccc(OC)cc2)c(=O)[nH]c1=O	4%	5	0%	-2.9%
CCN(CC)S(=O)(=O)c1ccc(NC(=O)c2cc(-c3ccccc3)nc3ccccc23)cc1	1%	-6	0%	-1.5%

One compound at a time (already shown).
Shown for CCCCN(C(=O)c1cccc(S(=O)(=O)N2CCOCC2)c1)c1c(N)n(CCC)c(=O)[nH]c1=O = miR-21 reporter = -2%; GLA inh pH 4.5 = 0; Rango dissoc inh = 23%; Rango-impB inh = -1.4%
Shown for CCCOc1cccc(C2C(C(=O)c3cccs3)=C(O)C(=O)N2CCN2CCOCC2)c1 (configuration not stated) = miR-21 reporter = -1%; GLA inh pH 4.5 = .; Rango dissoc inh = 15%; Rango-impB inh = 2.1%

(list continues)
SMILES	miR-21 reporter	GLA inh pH 4.5	Rango dissoc inh	Rango-impB inh
Cc1cc(C(=O)N/N=C/c2cccn2C)no1	-10%	-6	2%	-1.3%
Cc1cc(Br)ccc1NC(=O)CNC(=O)CSc1ncccn1	.	.	0%	-0.9%
NC(=O)CC1(CC(=O)O)CCCCC1	-8%	2	3%	-0.5%
CCCN(CC(=O)Nc1ccccc1OC)C(=O)CCC(=O)c1ccc(Cl)s1	.	.	20%	-0.6%
COCCCNC(=O)Cn1c(=O)n(Cc2ccccc2Cl)c(=O)c2cc(OC)c(OC)cc21	0%	-20	0%	-2.2%
Cn1c2c(c(=O)n(C)c1=O)C(NC(=O)c1ccco1)(C(F)(F)F)C(=O)N2 (configuration not stated)	-6%	4	1%	0.0%
CC(C)C(NS(=O)(=O)c1cccs1)C(=O)N(C)Cc1ccccc1 (configuration not stated)	0%	4	4%	-1.4%
O=C(O)c1ccccc1OCc1nc2ccccc2s1	-73%	.	0%	1.9%
Cc1ccccc1-n1c(C)nc2ccccc21	-10%	-21	-1%	-1.7%
COc1ccc(O[C@H]2C=C[C@@H](c3ccccc3)O[C@@H]2COC(=O)CC/C(C)=N/O[C@H](C)c2cn([C@@H]3COC[C@H]3O)nn2)cc1	7%	-4	.	.
O=C(CCC1CCCCC1)NCc1ccccn1	-10%	4	-1%	?
COc1ccc(C2=Nn3c(nnc3-c3ccccn3)SC2)cc1OC	-39%	12	10%	-4.9%
CCOC(=O)C1CCCN(c2nc(C)nc3c2oc2ccccc23)C1 (configuration not stated)	12%	6	-4%	-9.2%
O=C1CCCC2=C1C(c1ccsc1)CC(=O)N2c1nnc(SCc2ccccc2)s1 (configuration not stated)	-8%	-4	-10%	6.4%
CCc1ccccc1NC(=O)C1CCCN1C(=O)Nc1ccc(C)cc1 (configuration not stated)	-5%	.	4%	-0.1%
COc1cccc(NC(=O)C2CC(=O)n3cnnc3S2)c1 (configuration not stated)	3%	4	1%	-1.1%
CN1CCN(S(=O)(=O)c2ccc(C3CCCCC3)cc2)CC1	.	.	-15%	-2.6%
COc1cc(CN2CCC(C(=O)NC3CCCC3)CC2)cc(OC)c1O	2%	4	11%	4.9%
O=C(c1cccc(Cl)c1)N1CCN(C2CCCCC2)CC1	-8%	.	0%	-0.8%
N#Cc1c(F)cccc1NCCCn1ccnc1	.	.	-7%	0.5%
O=C(NCc1ccco1)c1cnn2cccnc12	2%	3	1%	-4.2%
COC(=O)[C@]1(Cc2ccccc2)N[C@H](c2ccc(-c3ccc(Cl)c(Cl)c3)cc2)[C@@H]2C(=O)N(C)C(=O)[C@@H]21	.	.	1%	0.3%
CC(C)CNS(=O)(=O)c1ccc(CCC(=O)Nc2cc(Cl)ccc2Oc2ccccc2)cc1	20%	-4	-10%	-2.0%
Cc1cccc(C(=O)N[C@H](C(=O)Nc2nc3ccccc3[nH]2)C(C)C)c1	24%	-2	-22%	0.0%
C[C@H](NC(=O)OC(C)(C)C)C(=O)NCC1CCC(C(=O)N[C@@H](Cc2ccccc2)C(=O)O)CC1 (some centres not stated)	1%	.	9%	0.2%
Oc1cc2c(cc1O)CN(C(=S)NCCc1ccc(Cl)cc1)CCC2	.	3&-8	9%	-2.2%
